A1 apoptosis 2 – A1 inhibitors via caspase activation, primary screen, cell-based, luminescence, HTS, two replicates | MEF A1-2A-BIM cells, caspase-Glo luminescence, 3 h; percent of clofoctol response, DMSO zero | caspase activation, % (concentration not given with the values) | 24,000 tested, under 10 active | AID 2465, 2010; in the data active = caspase activation above about 5.9%; inconclusive = no clear call, values can overlap the other calls; inactive = below about 2.2%;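 also: wells of about 30 µL received 50 nL stock; the first replicate is given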
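Material: mouse embryonic fibroblasts co-expressing A1 and BIM (A1-2A-BIM), primed for A1 dependence / Quantity: 2500 cells/well / Buffer or medium: RPMI-1640 growth medium with 10% FBS / Doses: 50 nL compound per well, pinned / Schedule: 3 h compound exposure at 37 °C / Signal: Caspase-Glo luminescence (DEVD substrate) / Measure: Caspase-3/7 activation, seen as rise in luminescence signal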
Numbers without * were called inactive; ? = inconclusive. Some of the compounds tested (hit frequency here may not be typical).

SMILES	A1 apoptosis 2
COC(=O)C(CC#Cc1ccc2c(c1)[C@]1(C(=O)N2)[C@H](c2ccc(OCCO)cc2)N2[C@H](c3ccccc3)[C@H](c3ccccc3)OC(=O)[C@H]2[C@@H]1C(=O)N1CCN(c2ncccn2)CC1)C(=O)OC	0.6
Cc1ccc(S(=O)(=O)N(C)C[C@@H]2Oc3ccc(N(C)C)cc3C(=O)N([C@@H](C)CO)C[C@@H]2C)cc1	-0.1
C[C@H](CO)N1C[C@H](C)[C@H](CN(C)C(=O)NC2CCCCC2)Oc2ccc(NS(=O)(=O)c3ccc(Cl)cc3)cc2CC1=O	0.1
C[C@@H]1CN([C@H](C)CO)C(=O)c2cc(NS(=O)(=O)c3cccs3)ccc2O[C@@H](C)CCCCO[C@@H]1CN(C)C	-0.1
C[C@H]1CN([C@@H](C)CO)C(=O)c2cc(NC(=O)Cc3cn(C)c4ccccc34)ccc2O[C@H]1CN(C)Cc1ccc2c(c1)OCO2	1.1
Cc1noc(C)c1NC(=O)N(C)C[C@@H]1Oc2ccc(NC(=O)NC3CCCCC3)cc2C(=O)N([C@H](C)CO)C[C@H]1C	-1.2
C[C@H](CO)N1C[C@H](C)[C@@H](CN(C)C(=O)c2ccncc2)OCCCC[C@H](C)Oc2ccc(N(C)C)cc2C1=O	1.4
C[C@@H]1CN([C@@H](C)CO)C(=O)c2cccc(NC(=O)Nc3ccc4c(c3)OCO4)c2O[C@H]1CN(C)CC1CC1	0.6
C[C@H](CO)N1C[C@H](C)[C@@H](CN(C)C(=O)Nc2ccccc2)Oc2ccc(NC(=O)Nc3ccc(F)cc3)cc2CC1=O	0.8
C[C@H](CO)N1C[C@H](C)[C@@H](CN(C)CC2CC2)Oc2c(NS(=O)(=O)c3cn(C)cn3)cccc2C1=O	-0.1
COc1ccc(S(=O)(=O)Nc2ccc3c(c2)C(=O)N([C@H](C)CO)C[C@H](C)[C@H](CN(C)Cc2ccc(Oc4ccccc4)cc2)O3)cc1	-1.0
O=C1N[C@@H](Cc2ccccc2)C(=O)N2[C@@H]1C[C@@H](C(=O)NCc1ccc(F)cc1)[C@H]2c1ccc(O)cc1	0.7
COc1ccc(-c2cc3c(c(-c4ccc(Oc5ccccc5)cc4)n2)[Si](C(C)C)(C(C)C)OC3)cn1	0.0
COc1ccc(S(=O)(=O)Nc2ccc3c(c2)C(=O)N([C@H](C)CO)C[C@@H](C)[C@H](CN(C)C(=O)Cc2ccccc2)OCCCC[C@@H](C)O3)cc1	0.5
C[C@@H]1CN([C@H](C)CO)C(=O)c2cc(NS(C)(=O)=O)ccc2O[C@@H](C)CCCCO[C@@H]1CN(C)Cc1ccc(C(F)(F)F)cc1	-0.5
C[C@H](CO)N1C[C@H](C)[C@@H](CN(C)Cc2ccc(C(=O)O)cc2)Oc2ccc(NC(=O)NC3CCCCC3)cc2C1=O	0.4
C[C@@H]1CN([C@@H](C)CO)C(=O)Cc2cc(NC(=O)CCC(F)(F)F)ccc2O[C@H]1CN(C)Cc1ccc(C(=O)O)cc1	-0.5
C[C@H](CO)N1C[C@H](C)[C@H](CN(C)C(=O)Nc2cccc3ccccc23)Oc2c(NS(=O)(=O)c3ccc(F)cc3)cccc2C1=O	-1.1
C[C@@H]1CN([C@H](C)CO)C(=O)Cc2cc(NC(=O)CCC(F)(F)F)ccc2O[C@H]1CN(C)C(=O)Nc1cccc2ccccc12	-0.5
Cc1ccc(S(=O)(=O)Nc2ccc3c(c2)CC(=O)N([C@H](C)CO)C[C@H](C)[C@@H](CN(C)S(=O)(=O)c2ccc(Cl)cc2)O3)cc1	-0.3

7 compounds already listed, arranged by SMILES length, ascending.
SMILES	A1 apoptosis 2
COc1ccc(-c2cc3c(c(-c4ccc(Oc5ccccc5)cc4)n2)[Si](C(C)C)(C(C)C)OC3)cn1	0.0
Cc1ccc(S(=O)(=O)N(C)C[C@@H]2Oc3ccc(N(C)C)cc3C(=O)N([C@@H](C)CO)C[C@@H]2C)cc1	-0.1
C[C@H](CO)N1C[C@H](C)[C@@H](CN(C)C(=O)c2ccncc2)OCCCC[C@H](C)Oc2ccc(N(C)C)cc2C1=O	1.4
Cc1noc(C)c1NC(=O)N(C)C[C@@H]1Oc2ccc(NC(=O)NC3CCCCC3)cc2C(=O)N([C@H](C)CO)C[C@H]1C	-1.2
C[C@H]1CN([C@@H](C)CO)C(=O)c2cc(NC(=O)Cc3cn(C)c4ccccc34)ccc2O[C@H]1CN(C)Cc1ccc2c(c1)OCO2	1.1
C[C@@H]1CN([C@H](C)CO)C(=O)c2cc(NS(C)(=O)=O)ccc2O[C@@H](C)CCCCO[C@@H]1CN(C)Cc1ccc(C(F)(F)F)cc1	-0.5
COc1ccc(S(=O)(=O)Nc2ccc3c(c2)C(=O)N([C@H](C)CO)C[C@@H](C)[C@H](CN(C)C(=O)Cc2ccccc2)OCCCC[C@@H](C)O3)cc1	0.5

The listing continues:
SMILES	A1 apoptosis 2
C[C@H]1CN([C@@H](C)CO)C(=O)c2cc(NC(=O)Cc3ccccc3)ccc2O[C@H]1CN(C)S(=O)(=O)c1cn(C)cn1	-0.5
O=C(N/N=C/c1ccccc1Cl)c1ccccn1	-9.6
C[C@@H]1CN([C@@H](C)CO)C(=O)c2cc(NC(=O)Cc3ccccc3)ccc2O[C@@H]1CN(C)C	-0.3
CNC[C@H]1OCCCC[C@H](C)Oc2ccc(NC(=O)Nc3ccccc3)cc2C(=O)N([C@@H](C)CO)C[C@@H]1C	0.9
C[C@@H]1CCCCO[C@H](CN(C)C(=O)Nc2ccc3c(c2)OCO3)[C@H](C)CN([C@H](C)CO)C(=O)c2cc(NC(=O)Nc3ccc(C(F)(F)F)cc3)ccc2O1	-1.0
C[C@@H]1CCCCO[C@H](CN(C)C(=O)Nc2ccc(C(F)(F)F)cc2)[C@@H](C)CN([C@@H](C)CO)C(=O)c2cc(NC(=O)CCC(F)(F)F)ccc2O1	0.0
C[C@@H]1CN([C@H](C)CO)C(=O)c2cc(NC(=O)Cc3ccccc3)ccc2O[C@@H](C)CCCCO[C@@H]1CN(C)S(=O)(=O)c1cccs1	-0.5
C[C@@H]1CCCCO[C@@H](CN(C)C(=O)c2ccncc2)[C@@H](C)CN([C@H](C)CO)C(=O)c2cc(NS(=O)(=O)c3ccccc3)ccc2O1	0.1
CNC[C@H]1Oc2ccc(NS(=O)(=O)c3ccc(F)cc3)cc2C(=O)N([C@H](C)CO)C[C@H]1C	0.6
C[C@@H]1CN([C@H](C)CO)C(=O)Cc2cc(NC(=O)Nc3ccccc3)ccc2O[C@@H]1CN(C)C(=O)Nc1ccc(C(F)(F)F)cc1	-0.6
C#CCNC(=O)C1=C[C@H](c2ccccc2)[C@@H](CCCO)[C@H](OCC)O1	0.5
C[C@@H]1CN([C@@H](C)CO)C(=O)Cc2cc(NC(=O)NC3CCCCC3)ccc2O[C@H]1CN(C)S(=O)(=O)c1ccccc1	0.2
C[C@@H]1CCCCO[C@H](CN(C)Cc2ccccc2)[C@H](C)CN([C@@H](C)CO)C(=O)c2cc(NS(=O)(=O)c3cccs3)ccc2O1	0.7
CN(CCO)c1ccc(/C=N/NC(=O)c2cccc(C(=O)NO)c2)cc1	-0.6
CNC[C@@H]1Oc2ccc(NC(=O)C3CC3)cc2CC(=O)N([C@H](C)CO)C[C@@H]1C	-1.4
C[C@H](CO)N1C[C@H](C)[C@H](CN(C)C(=O)Nc2ccc(F)cc2)Oc2ccc(NS(=O)(=O)c3ccc(Cl)cc3)cc2C1=O	0.7
C[C@@H]1CCCCO[C@H](CN(C)C(=O)CCCN(C)C)[C@H](C)CN([C@@H](C)CO)C(=O)c2cc(NC(=O)Nc3cccc4ccccc34)ccc2O1	0.3
C[C@H]1CN([C@@H](C)CO)C(=O)CCCn2cc(nn2)CO[C@@H]1CN(C)S(=O)(=O)c1ccc(Oc2ccccc2)nc1	-0.1
C[C@H](CO)N1C[C@H](C)[C@H](CN(C)Cc2ccc(Cl)c(Cl)c2)Oc2ccc(NC(=O)Cc3cn(C)c4ccccc34)cc2CC1=O	0.2
CC(C)NC(=O)N(C)C[C@H]1OCCCC[C@H](C)Oc2ccc(NC(=O)Nc3cccc4ccccc34)cc2C(=O)N([C@@H](C)CO)C[C@H]1C	-0.2
COc1ccc(S(=O)(=O)N(C)C[C@H]2Oc3ccc(NC(=O)Cc4cn(C)c5ccccc45)cc3C(=O)N([C@@H](C)CO)C[C@@H]2C)cc1	1.4
C[C@H]1CCCCO[C@H](CN(C)CC2CC2)[C@@H](C)CN([C@@H](C)CO)C(=O)c2cc(NS(=O)(=O)c3ccccc3)ccc2O1	-1.2
C[C@@H]1CN([C@@H](C)CO)C(=O)c2cc(NC(=O)CCC(F)(F)F)ccc2O[C@H]1CN(C)C(=O)Nc1ccccc1	0.0
C[C@@H]1CN([C@H](C)CO)C(=O)c2cc(NC(=O)CCCN(C)C)ccc2O[C@@H](C)CCCCO[C@H]1CN(C)S(=O)(=O)c1cccs1	-0.1
COc1ccc(NC(=O)N(C)C[C@@H]2OCCCC[C@@H](C)Oc3ccc(NC(=O)Nc4c(C)noc4C)cc3C(=O)N([C@H](C)CO)C[C@@H]2C)cc1	1.0
C[C@@H]1CN([C@@H](C)CO)C(=O)c2cccc(NC(=O)Nc3cccc4ccccc34)c2O[C@H]1CN(C)C(=O)Nc1ccccc1	-0.3
C[C@H]1CN([C@@H](C)CO)C(=O)c2cc(NS(C)(=O)=O)ccc2O[C@@H]1CN(C)Cc1ccc(Oc2ccccc2)cc1	0.7
C[C@@H]1CN([C@H](C)CO)C(=O)Cc2cc(NS(=O)(=O)c3ccc(F)cc3)ccc2O[C@H]1CN(C)Cc1ccncc1	-0.6
C[C@H](CO)N1C[C@H](C)[C@H](CN(C)S(=O)(=O)c2cn(C)cn2)Oc2c(NC(=O)Nc3ccccc3)cccc2C1=O	-0.1
Cc1noc(C)c1NC(=O)N(C)C[C@H]1Oc2ccc(NC(=O)CCC(F)(F)F)cc2CC(=O)N([C@@H](C)CO)C[C@H]1C	?
C[C@@H]1CN([C@H](C)CO)C(=O)CCCn2cc(nn2)CO[C@H]1CN(C)S(=O)(=O)c1ccc(Oc2ccccc2)cc1	0.1
C[C@@H]1CN([C@@H](C)CO)C(=O)Cc2cc(NC(=O)NC3CCCCC3)ccc2O[C@H]1CN(C)Cc1ccc2c(c1)OCO2	1.3
C[C@@H]1CN([C@@H](C)CO)C(=O)c2cc(NC(=O)c3ccncc3)ccc2O[C@@H](C)CCCCO[C@H]1CN(C)Cc1ccc(C(F)(F)F)cc1	-0.1
C[C@H](CO)N1C[C@H](C)[C@@H](CN(C)Cc2ccc3c(c2)OCO3)Oc2ccc(NC(=O)Cc3cn(C)c4ccccc34)cc2CC1=O	0.1
CCCC(O)C#Cc1cnc2c(c1)C(=O)N([C@H](C)CO)C[C@H](C)[C@H](CN(C)Cc1ccc(F)cc1)O2 (stereo not given in full)	-0.7
CC(C)(C)[C@H]1C=C(C(=O)N2CCN(Cc3ccc4c(c3)OCO4)CC2)O[C@@H](OCc2ccc(CO)cc2)C1	-0.6
Cc1ccc(S(=O)(=O)Nc2ccc3c(c2)C(=O)N([C@@H](C)CO)C[C@@H](C)[C@H](CN(C)S(=O)(=O)c2ccc(F)cc2)OCCCC[C@H](C)O3)cc1	0.2
COc1ccc(CN(C)C[C@H]2Oc3c(NC(=O)c4nc5ccccc5s4)cccc3C(=O)N([C@@H](C)CO)C[C@@H]2C)cc1	-0.8
CC(C)NC(=O)Nc1ccc2c(c1)C(=O)N([C@H](C)CO)C[C@H](C)[C@@H](CN(C)Cc1ccccc1)O2	0.7
O=C(CCCCC(=O)N/N=C/c1cc(O)ccc1Br)NO	0.5
C[C@H]1CN([C@@H](C)CO)C(=O)c2cc(NC(=O)Nc3ccc(F)cc3)ccc2O[C@H]1CN(C)C(=O)Nc1cccc2ccccc12	1.6
C[C@@H]1CN([C@@H](C)CO)C(=O)Cc2cc(NC(=O)CCCCCC(=O)Nc3ccccc3N)ccc2O[C@H]1CN(C)C(=O)Nc1ccc(F)cc1	-1.0
C[C@H]1CN([C@@H](C)CO)C(=O)c2cccc(NC(=O)Nc3cccc4ccccc34)c2O[C@H]1CN(C)S(=O)(=O)c1cccs1	0.2
C[C@H](CO)N1C[C@H](C)[C@@H](CN(C)Cc2ccc3c(c2)OCO3)Oc2ccc(NC(=O)CCC(F)(F)F)cc2C1=O	1.7
COC(=O)N(C)C[C@H]1OCc2cnnn2CCCC(=O)N([C@H](C)CO)C[C@H]1C	2.3
C[C@@H]1CN([C@@H](C)CO)C(=O)Cc2cc(N(C)C)ccc2O[C@@H]1CN(C)C(=O)Nc1ccc2c(c1)OCO2	0.0
Cc1cc(C(=O)Nc2cccc3c2O[C@@H](CN(C)S(=O)(=O)c2cccs2)[C@@H](C)CN([C@H](C)CO)C3=O)n(C)n1	0.2
Cc1noc(C)c1NC(=O)Nc1ccc2c(c1)C(=O)N([C@H](C)CO)C[C@H](C)[C@@H](CN(C)S(=O)(=O)c1ccccc1)OCCCC[C@H](C)O2	-0.3
C[C@H]1CN([C@@H](C)CO)C(=O)c2cc(NS(C)(=O)=O)ccc2O[C@H]1CN(C)C(=O)Nc1ccc(F)cc1	-0.3
COc1ccc(S(=O)(=O)N(C)C[C@@H]2Oc3ccc(NC(=O)Nc4cccc5ccccc45)cc3CC(=O)N([C@H](C)CO)C[C@@H]2C)cc1	1.0
CC(C)NC(=O)N(C)C[C@@H]1OCCCC[C@H](C)Oc2ccc(NC(=O)C3CCCCC3)cc2C(=O)N([C@@H](C)CO)C[C@@H]1C	-1.3

Compound activity (PubChem BioAssay)
